Screening data (PubChem)
MgrA-DNA mod: S. aureus MgrA activity modulators, primary screen, biochemical, S. aureus Newman, fluorescence polarization. MgrA-DNA binding. AID 602314, 2012. 84,000 tested, 0.13% active. inhibition, %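 (about 10 µg/mL by stock and volumes)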;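 active means above 50% in either of two replicates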;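 further: 0% = protein plus DNA without compound and 100% = DNA alone without protein; higher means less MgrA bound to DNA so lower polarization; one replicate is shown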
S aureus helic: inhibitors of S. aureus replicative helicase, primary screen, biochemical, fluorescence unwinding readout; replicative DNA helicase (DnaC/DnaB), Staphylococcus aureus; purified S. aureus helicase, fluorescence unwinding assay; about half of the hits fall short of the stated cut; inhibition, %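 (tested at about 80 µM)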; 120,000 tested, 0.05% active;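 active means both duplicates at 50% or more, or one of them with a favoured structure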;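 further: 0% = mean of negative control wells and 100% = mean of positive control wells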
* hit, by the source's call; · = no result given. Only part of the results is shown, so the mix of outcomes need not match the whole.

Results follow in this order: MgrA-DNA mod | S aureus helic
- Cc1sc(NC(=O)CN2CCN(c3ccccc3)CC2)c(C#N)c1C
 : 0.1 | ·
- CCOC(=O)c1c(C)noc1N
 : · | -15
- CC(C)(C)NC(=S)NNc1c(Cl)cncc1Cl
 : · | -16
- O=C(CSc1ccc2c(c1)OCCO2)NC1CCS(=O)(=O)C1 (stereo unspecified)
 : · | 14
- CN(C)c1ccc(/C=C2\CCCC3C2=NN(C(=S)NC(=O)c2ccco2)C3c2ccc(N(C)C)cc2)cc1 (stereo unspecified)
 : · | -42
- CCOc1ccc(Nc2cccc(F)c2C#N)cc1
 : · | -6
- CCN1C(=O)c2ccccc2S(=O)c2ccc(C(=O)N3CCCCC3)cc21 (stereo unspecified)
 : 4.9 | 3
- COc1ccc(C)cc1-n1nnnc1SCC(=O)Nc1ccccc1C(=O)NC1CC1
 : · | 9
- Oc1ccc(Br)cc1C=NCc1cccnc1
 : 1.4 | ·
- CC(C)c1nnc(NC(=O)c2ccccc2)s1
 : 0.1 | 14
- CS(=O)(=O)NCCSc1cc(C(F)(F)F)nc2ccccc12
 : -2.2 | ·
- CN(C)S(=O)(=O)c1ccc(C(=O)NCC(=O)NN)cc1
 : · | 1
- Cc1cccc(NC(=O)CNS(=O)(=O)c2ccc(Br)s2)c1
 : 0.5 | 10
- O=C(O)CC1(CC(=O)Nc2cscc2S(=O)(=O)c2ccccc2)CCCCC1
 : -1.7 | ·
- CC(NCC(O)Cn1c2ccccc2c2ccccc21)C(=O)O (stereo unspecified)
 : · | -6
- COc1ccc(CN(Cc2ccco2)S(=O)(=O)c2ccc(S(=O)(=O)N3CCCC3)cc2)cc1
 : -0.4 | 15
- CC[N+](CC)(CC)CCC(O)(c1ccccc1)C1CCCCC1 (stereo unspecified)
 : 4.3 | ·
- Cc1ccc(C2=NN(CC(=O)N3CCCCC3)C(=O)CC2)cc1
 : · | 14
- Cc1c(Cl)ccc(S(=O)(=O)Nc2ccncc2)c1Cl
 : · | -20
- CCN1CCSc2ccc(C(=O)NCCCN3CCCCC3)cc21
 : 0.9 | 9
- O=C(CSc1ncnc2c1oc1ccccc12)OCc1ccccc1
 : 0.5 | 6
- CN(N)C(=S)Nc1cc(Cl)ccc1Cl
 : -0.4 | ·
- CCCN1CCN(c2cc(-c3ccccc3)nc3cc(-c4cccc(F)c4)nn23)CC1
 : -0.8 | 4
- Clc1ccccc1-c1cc(-c2nnco2)c2ccccc2n1
 : 0.0 | 8
- N#C/C=C/N1CCN(C/C=C/c2ccccc2)CC1
 : · | -18
- CC12CC3(C)CC(N)(C1)CC(C(=O)O)(C2)C3
 : · | 0
- Oc1ccc(Cl)cc1C1=Nc2ncnn2C(c2ccccc2)C1 (stereo unspecified)
 : · | 5
- CCOCCOC(=O)C1=C(C)NC2=C(C(=O)CC(C)(C)C2)C1c1ccc(OCc2ccccc2)c(OC)c1 (stereo unspecified)
 : 1.8 | ·
- CCn1c(O)c(N=NC(N)=S)c2ccccc21
 : · | 9
- CC1CCN(C(=O)C23CC4CC(CC(C4)C2)C3)CC1
 : · | 16
- O=c1[nH]snc1N1CCOCC1
 : · | 5
- Cc1ccc(-n2cc3ccccc3c2C#N)nc1
 : -0.7 | ·
- CN(C(=O)COC(=O)c1ccc(Cl)c(S(N)(=O)=O)c1)C1CCS(=O)(=O)C1 (stereo unspecified)
 : · | 11
- O=C(COC(=O)c1ccccc1C(=O)c1ccccc1)c1ccccc1
 : 0.0 | ·
- C=CCNC(=S)N1N=C2c3ccccc3CCC2C1c1ccccc1Cl (stereo unspecified)
 : 1.7 | ·
- O=C(NC(=O)c1ccccc1C(F)(F)F)NN1CCCCC1
 : -2.0 | ·
- NC(=O)c1cc2c(n(-c3ccccc3)c1=O)CCCC2=O
 : 2.9 | 7
- Cn1c2ccccc2c2nnc(SCC(=O)NC3=NN=C(c4ccccc4)CS3)nc21
 : · | -9
- O=C(O)CSCc1nc2ccccc2c(=O)[nH]1
 : · | 4
- Cc1ccc(Sc2nn(C)c(=O)n(C)c2=O)cc1C
 : · | 8
- CO[C@@H]1O[C@H](COC(=O)c2ccccc2)[C@H](OC(=O)c2ccccc2)[C@H]1OC(=O)c1ccccc1
 : 2.5 | ·
- CC(C)(O)C#Cc1ccc(C(=O)NCC(c2ccccc2)c2ccccc2)cc1
 : -1.1 | -5
- COC(=O)CSc1nc2ccccc2n1CC(=O)N1C(C)CCCC1C (stereo unspecified)
 : 1.4 | 4
- O=c1c2cc3ccccc3n2cnn1Cc1ccccc1F
 : · | -3
- COc1ccc(NC(=O)NC(=O)C(F)(F)F)cc1
 : -1.4 | 8
- O=C(NC(NCc1ccccn1)(C(F)(F)F)C(F)(F)F)c1cccnc1
 : 4.7 | ·
- O=c1c2cccnc2ncn1CCCN1CCOCC1
 : · | 2
- O=C(CCn1c(=O)c2cccn2c2ccc(F)cc21)NCCc1cccs1
 : · | 13
- COC(=O)c1ccccc1NC(=O)CCn1cccc1
 : 3.3 | 19
- O=C(COc1coc(CN2CCc3ccccc32)cc1=O)OCc1ccccc1
 : · | -2
- CC1(C)C(=S)Nc2ccccc21
 : · | 21
- Nc1cc(=O)[nH]c(SC(C(=O)N2CCCC2)c2ccccc2)n1 (stereo unspecified)
 : · | 0
- Cn1c(=O)c2cc(N)cnc2n(C)c1=O
 : · | -23
- COc1ccc(C2C(C#N)(C#N)C2(C#N)C#N)cc1
 : 1.7 | ·
- NC(=O)c1ccc(NC(=O)c2cc3ccccc3oc2=O)cc1
 : -1.8 | 9
- Cc1cccc(NC(=O)CCN2C(=O)/C(=C\c3ccccc3)SC2=S)c1
 : 0.1 | 6
- CN(C)c1ccc(/C=N/N)cc1
 : -1.1 | ·
- CCOc1ncccc1C(=O)O
 : -4.7 | 14
- CCC(C)NCc1nc(N)nc(Nc2ccccc2C)n1 (stereo unspecified)
 : · | 3
- CCSc1nnc(NC(=O)CSc2nnc(Cc3cccn3C)n2-c2ccc(F)cc2)s1
 : -0.8 | 9

(listing goes on)
Results follow in this order: MgrA-DNA mod | S aureus helic
- CC(C)(C)c1ccc(OCCCC(=O)Oc2ccc(-c3nnco3)cc2)cc1
 : · | 6
- O=C(Cn1ncn2c(cc3ccccc32)c1=O)NCc1ccccc1
 : · | 13
- CC12CC3(C)CC(CN)(C1)CC(CCN)(C2)C3
 : -4.2 | 11
- O=C(Cc1c(Cl)cccc1Cl)NC1CCC(O)CC1 (stereo unspecified)
 : · | -12
- CCOC(=O)c1c(NC(C)=O)nc(SC)n1Cc1cccs1
 : -1.9 | ·
- CCc1ccc(Nc2nc(C)cc(C)c2C(N)=O)cc1
 : -2.7 | 7
- CC(Oc1ccccc1)C(=O)N/N=C/c1ccccc1 (stereo unspecified)
 : · | 7
- COC(=O)CC1C(=O)NCCN1C(=O)C1c2ccccc2Oc2ccccc21 (stereo unspecified)
 : · | 10
- CCOc1ccc(Br)cc1S(=O)(=O)N(C)C1CCCCC1
 : · | 15
- Nc1nc(Nc2ccccc2)n[nH]1
 : -0.8 | ·
- COC(=O)c1c(C)[nH]c(=O)[nH]c1=S
 : · | 4
- C=CCn1ccc2c(OCC(N)=O)cccc2c1=O
 : · | 10
- Cc1ccc2c(Cl)cc(Cl)c(OCC(=O)N(C)Cc3ccccc3)c2n1
 : 4.3 | 4
- Cc1cccc(N2C(=O)c3ccc(C(=O)Nc4ccccn4)cc3C2=O)c1
 : · | 18
- COc1cc2[nH]c(=S)n(CCc3cnc[nH]3)c(=O)c2cc1OC
 : -0.8 | 19
- COc1nc(-c2ccccc2)c2cc(C)ccc2n1
 : · | 4
- O=C(c1ccco1)N1CCN(C(=O)C2CC(c3ccc(Cl)cc3)=NO2)CC1 (stereo unspecified)
 : -1.6 | 12
- CC1(C)CC(=O)C(=Cc2cn(-c3ccccc3)nc2-c2cccs2)C(=O)C1
 : · | 48
- CCOC(=O)c1c(C)c2c(n1C)CCC/C2=N\O
 : 2.4 | 4
- Cc1cccnc1NC1CCCCC1
 : 0.7 | 25
- COc1ccccc1N1CCN(Cc2ccc3ccccc3c2)CC1
 : 1.4 | ·
- O=C(Nc1ccccc1)c1cccc(N2CCCC2=O)c1
 : -0.1 | 7
- CCC(=O)N1CCc2cc(S(=O)(=O)CCC(=O)Nc3ccc(Cl)cc3)ccc21
 : · | 7
- OCCN1CCN(Cn2nnc3ccccc32)CC1
 : -0.7 | ·
- O/N=C/c1nc2cc(Cl)ccc2o1
 : · | 2
- O=C(O)c1cc(-c2ccc(O)cc2)on1
 : -8.2 | 0
- CCOC(=O)c1c(NC(=S)Nc2ccc(OC)cc2)sc2c1CC(C(C)C)OC2 (stereo unspecified)
 : 3.6 | 7
- COc1ccc(-n2c(SC)nnc2-c2ccc(OC)c(OC)c2)cc1
 : · | -10
- O=C(/C=C/c1ccc2c(c1)OCCCO2)N1CCN(C2CCS(=O)(=O)C2)CC1 (stereo unspecified)
 : · | 13
- Cc1nnc(NC(=O)CSc2nnc(CNC(=O)c3ccccc3F)n2C)s1
 : 1.4 | -13
- Cc1ccc(-c2csc(-c3cccnc3)n2)c(C)c1
 : -6.5 | ·
- COc1cc(/C=C2\C(=O)NC(=O)N(c3cc(C)cc(C)c3)C2=O)c([N+](=O)[O-])cc1OC
 : 4.7 | ·
- Cc1onc(-c2ccccc2)c1NC(=O)N(C)CCc1ccccn1
 : · | -40
- C=CCNC(=O)C1CC(=O)N(c2ccc(OCC(=O)NCc3ccccc3)cc2)C1 (stereo unspecified)
 : 7.0 | 8
- CCCCC1CCC(C(=O)Nc2c3c(nn2-c2ccc(F)cc2)CS(=O)(=O)C3)CC1 (stereo unspecified)
 : 2.7 | 13
- COc1ccc(Nc2nc(=S)[nH]c3cc(OC)c(OC)cc23)cc1
 : 3.9 | 28
- CC1CCN(CC(O)Cn2c3ccccc3c3ccccc32)CC1 (stereo unspecified)
 : · | 11
- Cc1ccc(CN2CNc3c(-c4ccccc4F)c(C)nn3C2)cc1
 : · | 11
- FC(F)(F)c1cnc(NCc2nnc3ccccn23)c(Cl)c1
 : · | -19
- O=C(O)CCCC(=O)NC1=NCCS1
 : · | -11
- COc1cc(C=NCCCN=Cc2cc(OC)c(OC)c(OC)c2)cc(OC)c1OC
 : 0.5 | ·
- O=c1oc2c(-c3ccc(Cl)cc3Cl)cc(O)cc2s1
 : · | 7
- COc1ccc(/C=N/N2CCN(C)CC2)cc1
 : -1.7 | 3
- CC(C)C1CC(C)(C)c2ccc(O)cc21 (stereo unspecified)
 : · | 8
- Cn1cnc2cc(NCc3ccccn3)ccc21
 : -4.5 | 3
- Cc1ccc(C)c(-c2n[nH]c(=O)c3ccccc23)c1
 : · | 9
- CCC(C(=O)N1CCN(c2cccc(C(F)(F)F)c2)CC1)c1ccccc1 (stereo unspecified)
 : -0.1 | 12
- O=C(Nc1nccs1)C(c1ccccc1)N1CCOCC1 (stereo unspecified)
 : -7.1 | 4
- CCOC(=O)c1sc2ncn(/N=C/c3ccc4c(c3)OCCO4)c(=O)c2c1C
 : 0.9 | 2
- CCOC(=O)c1c(C)oc2c1c(C(c1ccccc1)N1CCOCC1)c(O)c1ccccc12 (stereo unspecified)
 : · | -1
- Cc1nn(-c2ccccc2)nc1C(=O)NC(=O)N1CCSCC1
 : -1.4 | ·
- Cc1cc(C(=O)NCc2ccc(C)o2)n[nH]1
 : · | -5
- CCOc1ccc(NC2=NC(C(=O)NCc3ccccc3)CC(=O)N2)cc1 (stereo unspecified)
 : 3.2 | 18
- CCN(C(=O)CSc1nnc(-c2ccccc2Br)o1)c1nc(C)cs1
 : -5.7 | 7
- Cc1ccc(S(=O)(=O)Nc2ccc(S(=O)(=O)Nc3nccc(C)n3)cc2)cc1
 : -0.6 | 6
- O=C(O)CC1SC(Cc2ccc(Cl)cc2)=NC1=O (stereo unspecified)
 : 28 | ·
- COc1cccc2c1CC/C(=C\c1ccc(N(C)C)cc1)C2=O
 : · | -90
- Cc1cccc(NS(=O)(=O)c2c(C)n[nH]c2C)c1
 : 1.5 | 3
- COc1cccc(CNC(=O)C2=C(C)C(=O)OC23CCCCC3)c1OC
 : · | -30
- O=C(NCCCn1ccc2ccccc21)c1cnccn1
 : · | -7

Other compounds follow.
Results follow in this order: MgrA-DNA mod | S aureus helic
- CCc1ccc(N2C(=O)/C(=C/C=C/c3ccco3)N(CC(=O)OC)C2=S)cc1
 : 29 | -5
- Cc1[nH]c2ccccc2c1C(OC(C)C)c1ccccn1 (stereo unspecified)
 : -0.1 | 3
- COc1cc(OC)c(NC(=O)CCc2c(C)nc3c(c2C)c(=O)n(C)c(=O)n3C)cc1Cl
 : · | -25
- CCOC(=O)C1CCN(CCCCOc2ccc(C#N)cc2)CC1
 : 0.0 | 9
- CC(C)c1cc(C(=O)N2CCN(C(c3ccccc3)c3ccccc3)CC2)no1
 : 1.6 | 7
- CCOc1cc2c3c(c1)C1(OCCO1)C(=O)N3C(C)(C)CC2C (stereo unspecified)
 : -0.1 | -3
- CSc1nn2c(C(F)(F)F)cc(C(F)(F)F)nc2c1C#N
 : -1.4 | ·
- O=c1[nH]cc(-n2c(=O)c3cc4c(=O)n(-c5c[nH]c(=O)[nH]c5=O)c(=O)c4cc3c2=O)c(=O)[nH]1
 : · | -18
- O=S(=O)(c1cccc(S(=O)(=O)N2CCCCC2)c1)c1cccc(S(=O)(=O)N2CCCCC2)c1
 : · | -9
- CCOC(=O)c1cc(-c2ccc(C)cc2)n(CC(=O)NCC2COc3ccccc3O2)c1C (stereo unspecified)
 : 0.5 | 10

One compound at a time (already shown):
COc1cc(OC)c(NC(=O)CCc2c(C)nc3c(c2C)c(=O)n(C)c(=O)n3C)cc1Cl across the screens: MgrA-DNA mod = ·; S aureus helic = -25
O=c1[nH]cc(-n2c(=O)c3cc4c(=O)n(-c5c[nH]c(=O)[nH]c5=O)c(=O)c4cc3c2=O)c(=O)[nH]1 across the screens: MgrA-DNA mod = ·; S aureus helic = -18
CCOC(=O)c1cc(-c2ccc(C)cc2)n(CC(=O)NCC2COc3ccccc3O2)c1C (stereo unspecified) across the screens: MgrA-DNA mod = 0.5; S aureus helic = 10
